# Vaccinia mCherry: vaccinia inhibition (mCherry reporter); Vaccinia virus mCherry reporter infection, fluorescence; about a quarter of the inactives have no number; 0.63% of 310,000 active; AID 720579; Potency, µM (top dose mostly 36.5 µM), for the others: at the highest dose activity change, negative = inhibition, hits mostly inhibitors; active = well fitted inhibition curve with a large enough effect; inconclusive = small, poorly fitted or top-dose-only effect; inactive = no such curve, though single readings can be large or run the other way; tested in A549 cells; note: nearly all actives have a fitted effect of over 35% in size; inactives centre near -10
# Vaccinia Venus: inhibitors of vaccinia virus (Venus reporter) | 0.46% of 330,000 active | Vaccinia virus Venus reporter expression, fluorescence | Potency, µM (top dose mostly 36.5 µM), for the others: at the highest dose activity change, negative = inhibition, actives largely listed as inhibitors; active means well fitted inhibition curve with a large enough effect; inconclusive means small, poorly fitted or top-dose-only effect; inactive means no such curve, though single readings can be large or run the other way; tested in A549 cells; note: nearly all actives have a fitted effect of over 30% in size; inactives centre near -10
# An asterisk follows results filed as active; i = inactive; ? = inconclusive; / = not tested or not shown; & = joins results of further samples; [ ] = remark or other dose. % is set by controls: 0 for no effect and ±100 for the full control effect; potency is the fitted concentration of half-maximal effect.
SMILES,Vaccinia mCherry,Vaccinia Venus
COc1ccc(CN2CCCC(CO)(Cc3cccc(Cl)c3)C2)cc1OC (stereo not given),i,-14.9%
CCOC(=O)[C@H]1[C@H]2COc3ccc(Br)cc3[C@@H]2N2C(=O)CN(Cc3ccccc3)C(=O)[C@@]12C,i,-22.1%
COc1ccc(C(=O)/C=C2\C(=O)Nc3ccc(Br)cc32)cc1,-19.9%,-25.2%
COC(=O)c1ccc2nc(-c3ccc(F)cc3)c(Cc3ccc(C)cc3)n2c1,-0.3%,-8.0%
Cc1ccc(OCC(=O)Nc2ccc(NC(=O)c3ccccc3)cc2)cc1C,-9.1%,-4.7%
COc1ccc(CCNC(=O)c2ccccc2N(C)S(=O)(=O)c2ccccc2)cc1,-17.7%,-15.9%
Cn1c(SCC(=O)NC(=O)CN2CCCC2=O)nnc1-c1ccc(F)cc1,i,-4.6%
C[C@H](CO)N1C[C@H](C)[C@@H](CN(C)C(=O)Nc2ccccc2)Oc2c(NC(=O)Nc3ccccc3)cccc2C1=O,2.7%,-9.4%
CCC[C@@H]1CCCO[C@@](C(=O)NCCN2CCOCC2)(C(F)(F)F)C1,-1.0%,-11.5%
CC1(C)CC(=O)C(N=Nc2ccc(Cl)cc2)=C(O)C1,-18.1%,-12.3%
CCc1sc(N)nc1-c1ccccc1,-19.3%,-7.3%
O=C(Nc1nccs1)c1cccc(S(=O)(=O)N2CCOCC2)c1,/,-20.2%
Cc1ccc(S(=O)(=O)N[C@@H](C)CO)cc1,11.4%,-4.3%
Cc1nc(N2CCC(C)CC2)c2c(C)c(C(=O)Nc3ccccc3C(F)(F)F)sc2n1,i,1.0%
O=C(C=C(O)c1ccc(Cl)cc1)C(=O)NNC(=O)C(O)(c1ccccc1)c1ccccc1,-27.5%,21.9%
CC(NC(=O)c1ccc(C(=O)c2ccccc2)cc1)c1ccc(S(N)(=O)=O)cc1 (stereo not given),-11.0%,-8.7%
O=C(COC(=O)c1ccc(F)cc1)Nc1ccc(Cl)cn1,i,1.4%
COc1ccc(N2CCN(S(=O)(=O)c3c[nH]c(=O)[nH]c3=O)CC2)cc1,-20.2%,6.5%
CCOc1ccc(-c2c(C(=O)N/N=C/c3sccc3C)nnn2-c2nonc2N)cc1,i[7.34 µM],-0.2%[7.34 µM]
COc1ccc(NC(=O)CSc2nc3c(oc4ccccc43)c(=O)n2Cc2ccco2)cc1Cl,-3.2%[7.34 µM],-7.7%[7.34 µM]

# Of the compounds above, these contain bromine.
SMILES,Vaccinia mCherry,Vaccinia Venus
CCOC(=O)[C@H]1[C@H]2COc3ccc(Br)cc3[C@@H]2N2C(=O)CN(Cc3ccccc3)C(=O)[C@@]12C,i,-22.1%
COc1ccc(C(=O)/C=C2\C(=O)Nc3ccc(Br)cc32)cc1,-19.9%,-25.2%

# The listing continues:
SMILES,Vaccinia mCherry,Vaccinia Venus
CCCOc1ccc(Cn2c(C)nc([N+](=O)[O-])c2SCC(O)COC)cc1[N+](=O)[O-] (stereo not given),2.2%,5.8%
CCN(CC)S(=O)(=O)c1ccc(NC(=O)c2c(-c3ccccc3)noc2C)cc1,15.5%,-9.9%
O=c1[nH]c(=O)n(C2CCCCCC2)c(O)c1C=NCC1CCCO1 (stereo not given),/,-20.3%
COc1ccc(C)cc1NC(=O)Nc1ccccc1SC,-1.2%,-11.0%
Cc1ccc(N(C)C(=O)c2cc(S(=O)(=O)N3CCc4ccccc43)cn2C)cc1,-11.6%,-27.8%
O=[N+]([O-])c1ccc2nc(N3CCNCC3)ccc2c1,?,?
Cc1nc(SCC(=O)NC2CCCC2)c2c(C)c(C)sc2n1,25.1%,-2.5%
COC(C(=O)NNC(=O)CCc1ccccc1)c1ccccc1 (stereo not given),-2.0%,-9.8%
Cc1ccc(SCC(=O)OCC(=O)NC(C)c2ccc(Br)cc2)cc1 (stereo not given),i,-23.9%
COc1ccc2nc(CCN(C)C(=O)C3CCC(=O)N(Cc4cccc(F)c4)C3)[nH]c2c1 (stereo not given),-6.8%[7.34 µM],12.2%[7.34 µM]
Cc1ccccc1S(=O)(=O)Cc1ccc(C(=O)NCCCN(C)Cc2ccccc2)o1,i,-3.9%
Cc1ccccc1NC(=O)/C(C#N)=C/c1ccsc1,-12.3%,-12.5%
C[C@@H](NC(=O)[C@@H]1CCCN1C(=O)[C@@H]1CCCN1C(=O)c1cccc(Cl)c1)c1ccccc1,20.4%,-6.2%
O=C(O)[C@H]1CCCC[C@H]1C(=O)Nc1ccc(S(=O)(=O)N2CCCCC2)cc1,i,-2.0%
CN(C(=O)c1cccc(NC(=O)Cc2ccc(NC(=O)C3CCCN(C(=O)C4CCCC4)C3)cc2)c1)C1CCCCC1 (stereo not given),-15.1%,0.0%
O=C(COc1ccccc1C(=O)NCC1CCCO1)Nc1ccc(Br)cc1 (stereo not given),-10.2%,-20.0%
Cc1c(C)n(Cc2ccccc2)c2ccc(C(=O)NCc3ccco3)cc12,?,?
COc1ccc(-c2nnn(CC(=O)N(CC(=O)NC3CCCC3)c3cccc(C)c3)n2)cc1OC,-18.3%,-14.1%
COc1ccc(NC2CCCN(C(=O)CCN3CCCC3=O)C2)cc1OC (stereo not given),i,-4.4%
O=C(O)c1ccc2c(c1)OCO2,-20.0%,-1.5%

# The list goes on; the last 3 above are carried over.
SMILES,Vaccinia mCherry,Vaccinia Venus
COc1ccc(-c2nnn(CC(=O)N(CC(=O)NC3CCCC3)c3cccc(C)c3)n2)cc1OC,-18.3%,-14.1%
COc1ccc(NC2CCCN(C(=O)CCN3CCCC3=O)C2)cc1OC (stereo not given),i,-4.4%
O=C(O)c1ccc2c(c1)OCO2,-20.0%,-1.5%
O=C(NCCCN1CCN(CCCNC(=O)c2ccccc2F)CC1)c1ccccc1F,-11.9%,-5.1%
Nc1cc2c(cc1Br)-c1ccc(F)cc1C2O (stereo not given),?,-2.1%
O=C1NC(=O)C(=Cc2cc([N+](=O)[O-])ccc2N2CCCCC2)C(=O)N1,i,-1.1%
CCOC(=O)C1CCCN(S(=O)(=O)Cc2ccccc2)C1 (stereo not given),-14.7%,-4.9%
CCOc1ccc(-n2c(N)c(C(=O)NCc3ccco3)sc2=S)cc1,-7.7%,-14.3%
CCOC(=S)SCc1cn2ccccc2n1,i,-7.1%
Fc1ccc(-c2nc3ccc(Cl)cn3c2Cc2cccc(F)c2)cc1,i,-0.1%
Cc1cc(NC(=O)c2ccc3sc([C@@H]4O[C@H](CO)[C@H](O)[C@H](O)[C@H]4O)nc3c2)n(C)n1,4.7%,4.2%
COc1ccc(N2CC(C(=O)NC3CCCCC3)CC2=O)cc1 (stereo not given),-13.4%,-17.7%
CCC(C(=O)NC(C)(C)C)n1c(-c2ccc3c(c2)OCO3)nc2ccccc21 (stereo not given),-2.9%,1.3%
CCCOC(=O)CSc1nnc2ccc3ccccc3n12,-7.6%,-2.3%
CNc1cc([N+](=O)[O-])ccc1N/C=C/C(=O)c1cccs1,/,-6.1%
CCOC(=O)C(C)Sc1cnccn1 (stereo not given),i,-9.1%
Cc1ccc2[nH]c3c(=S)nc[nH]c3c2c1,-24.0%,-11.1%
O=C(Nc1cc(C(F)(F)F)ccc1Cl)c1cnn(-c2ccccc2)c1-n1cccc1,?,-28.2%
Cc1cc(C)c(OCCOCCN(C)C)c(Br)c1,-14.6%,-13.9%
C=Cc1ccc(Cn2c(C(=O)O)c(CNC3CCCC3)c3ccc(C)cc32)cc1,6.9%,-3.9%
Cc1nc(N2CCCC2)c2c(C(=O)N3CCN(c4cccc(Cl)c4)CC3)c(C)oc2n1,-17.7%,-27.5%
COc1cccc(CNc2nn[nH]n2)c1OC,/,23.8%
CC(=O)c1ccc(NC2OC(CO)C(O)C(O)C2O)cc1 (stereo not given),-12.4%,-8.6%

# A portion from further up, for reference:
SMILES,Vaccinia mCherry,Vaccinia Venus
O=C(NCCCN1CCN(CCCNC(=O)c2ccccc2F)CC1)c1ccccc1F,-11.9%,-5.1%
Nc1cc2c(cc1Br)-c1ccc(F)cc1C2O (stereo not given),?,-2.1%
O=C1NC(=O)C(=Cc2cc([N+](=O)[O-])ccc2N2CCCCC2)C(=O)N1,i,-1.1%
CCOC(=O)C1CCCN(S(=O)(=O)Cc2ccccc2)C1 (stereo not given),-14.7%,-4.9%
CCOc1ccc(-n2c(N)c(C(=O)NCc3ccco3)sc2=S)cc1,-7.7%,-14.3%

# (list continues)
SMILES,Vaccinia mCherry,Vaccinia Venus
COc1ccc(C(c2c(C)n(C)n(-c3ccccc3)c2=O)c2c(C)n(C)n(-c3ccccc3)c2=O)c(OC)c1OC,-13.2%,-10.7%
CCCCNC(=O)CCCCCNS(=O)(=O)c1ccc(OC)cc1,-9.0%,-10.8%
CCCC(=O)Nc1cccc(OCc2cc(=O)n3cccc(C)c3n2)c1,-7.5%,-18.7%
COc1ccc(CC(=O)OCC(=O)Nc2cccc(C(C)=O)c2)cc1OC,-13.6%,-0.9%
CC(=O)Nc1ccc(N2Cc3ccccc3C2)cc1,-7.4%,-13.0%
CN1CCN(c2nc3c(c(=O)[nH]c(=O)n3C)n2Cc2cccc3ccccc23)CC1,-21.9%,-21.5%
COc1ccc(S(=O)(=O)N2CCC(C(=O)N3CCC(C(N)=O)CC3)CC2)cc1Cl,i,1.1%
Cc1ccc(C2CC(=O)NC(SCc3ccccc3)=C2C#N)o1 (stereo not given),-17.0%,-17.5%
CCCCCC(=O)N1CCN(CCN=CC2=C(O)CC(c3cccs3)CC2=O)CC1 (stereo not given),i,-2.3%
O=C(CCNC(=O)c1ccco1)Nc1ccccc1N1CCOCC1,0.0%,-3.9%
CC1CN(C(=O)CCC(=O)NCc2cccs2)c2ccccc2O1 (stereo not given),-8.9%,-9.5%
CCC(=O)Nc1ccc(C(=O)Nc2c[nH]c(=O)[nH]c2=O)cc1,-7.9%,3.1%
CNCc1cc(Br)c(OCC(=O)Nc2ccccc2OC)c(OC)c1,i,-11.3%
CCOC(=O)[C@@H](C)NS(=O)(=O)N(Cc1ccccc1)[C@H](C(=O)OC)C(C)C,-2.0%&-18.9%,-10.5%&-6.3%
CCOc1ccccc1NC(=O)NNS(=O)(=O)c1cc(OC)ccc1OC,-12.1%,1.1%
N#Cc1nc(-c2ccccc2F)oc1NC1CCCCC1,-6.7%,-5.3%
O=C(NNC(=O)c1ccccc1[N+](=O)[O-])c1ccccn1,-6.6%,6.4%
Cc1cccc(C(=O)NCc2nnc(SCC(=O)N3CCN(c4ccccc4)CC3)n2C)c1,-12.1%,-14.2%
CN(CC(=O)Nc1ccccc1C(F)(F)F)C(=O)C1CCN(C(=O)c2ccc(Cl)cc2)CC1,i,-9.9%
COc1ccccc1C(=O)NNC1=C(C(=O)C(F)(F)F)CCC1,-9.2%,7.0%
Cc1nc2nc(SCC(=O)NCCCN3CCCCC3)nn2c(C)c1Cc1ccccc1,i,-1.7%
Oc1c(C(Nc2cccc(C(F)(F)F)c2)c2ccncc2)ccc2cccnc12 (stereo not given),?,?
Cc1cccnc1NCc1ccc(O)c2ncccc12,14.1µM*,?
CN(C)CCCN1C(=O)CSC1c1ccc([N+](=O)[O-])cc1 (stereo not given),-10.0%,-3.6%
O=C(N[C@@H](CCC/[N+]([O-])=C/c1ccccc1)C(=O)O)OCc1ccccc1,-7.7%,0.0%
CC(=O)OCC1OC(OC(C)=O)C(NC(=O)c2cccnc2)C(OC(C)=O)C1OC(C)=O (stereo not given),i,-7.1%
C/C(=C\c1ccc2c(c1)OCO2)C(=O)c1c(C)cc(C)[nH]c1=O,-3.1%,-10.2%
CC(C)CCNC(=O)c1c2c(nc3ccccc13)C(=O)N(C1CCCCC1)C2,-11.0%,-13.2%
COC(=O)C1=C(CSc2nc3ccccc3o2)NC(=O)NC1c1cc(C)ccc1C (stereo not given),/,-25.9%
Cc1cc(C)cc(NC(=O)C(NS(=O)(=O)c2cccc3nsnc23)c2ccccc2)c1 (stereo not given),-9.9%,-13.6%
CCCCc1c(O)nc(SCC(=O)N2CCCCC2)n(-c2ccccc2C)c1=O,-2.9%,-9.4%
COc1ccccc1-c1cnc(C(O)c2ccc(C)cc2C)[nH]1 (stereo not given),5.4%,5.7%
COCCc1ccc(OC2(C)CCN(Cc3cccn3-c3nccs3)C2)cc1 (stereo not given),-5.7%,-29.7%
CC(=O)Nc1cccc(NC(=O)CS(=O)(=O)c2cn(CC(=O)N3CCOCC3)c3ccccc23)c1,-12.2%,-6.7%
CCn1c(-c2ccccc2F)nc2cc(NC(C)=O)cc(C(=O)NCc3ncc(C)[nH]3)c21,i,-12.5%
Cc1ccc(C)c(NC(=O)CSc2nc3c(c(=O)n2C)SC(C)C3)c1 (stereo not given),-12.2%,-11.6%
O=C(Nc1nnc(C2CC2)s1)C1COc2ccccc2O1 (stereo not given),-4.2%,-17.8%
Nc1c(C(=O)CSc2n[nH]c(-c3ccccc3)n2)c(=O)[nH]c(=O)n1C1CC1,-21.5%,-11.8%
O=C(COC(=O)c1cc(=O)c2ccccc2o1)NC1CCCC1,i,-8.9%
O=C(COc1ccc(Cl)cc1)N(Cc1ccco1)Cc1ccco1,-6.2%,-15.6%
Cc1cccn2c(=O)cc(COc3ccc(NC(=O)C(C)Oc4ccccc4)cc3)nc12 (stereo not given),i,-22.8%
CCc1ccc(-n2c(=O)c3sc4ccccc4c3n(Cc3cccc(F)c3)c2=O)cc1,-3.9%,3.2%
COc1cccc(C2NC(C)(C(=O)O)C3C(=O)N(C(C)C)C(=O)C23)c1O (stereo not given),5.2%,-2.2%
c1cnc2c(OCc3nc4ccccc4[nH]3)cccc2c1,-14.4%,-2.6%
COC(=O)C(Cc1ccc(O)cc1)NC(=O)CCc1nc2ccccc2s1 (stereo not given),-19.8%,-14.8%
